Screens deposited in PubChem by Southern Research Institute.
Mtb H37Rv: Mycobacterium tuberculosis H37Rv growth inhibition, cell based, confirmatory dose response (AID 1949); most inactive calls were filed without a number and no value below 0 was filed; one-dose inhibition, % at 10 µg/mL; IC50 in µg/mL for titrated hits; actives 1.6% (n = 100,000);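 active = confirmed in a dose series; inconclusive = about 50% or more but not retested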;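 note: bacteria grown 7 days with compound before Alamar blue readout; 0% = untreated bacteria and 100% = reference antibiotic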
An asterisk follows results filed as active; i = inactive; u = inconclusive. Not all compounds are listed, so the mix of outcomes need not match the whole.

SMILES | Mtb H37Rv
COC(=O)Nc1ccc(S(=O)(=O)N2CCCC(C(=O)Nc3ccc(N(C)C)cc3)C2)cc1 (stereo not given) | i
CC(=O)c1cccc(NC(=O)Nc2c(C)nn(C)c2C)c1 | i
CCOC(=O)N1CCN(C(=O)C2CCN(C(=O)c3ccc(C(C)(C)C)cc3)CC2)CC1 | 5%
CCOc1cccc(OCCCCn2ccnc2)c1 | u
CCOc1ccccc1NC(=O)Nc1ccc(I)cc1 | i
O=C(NCc1ccccc1F)c1cc2ccccc2oc1=O | i
O=C(Nc1ccccc1F)c1ccc(COc2ccccc2Cl)o1 | i
N#CCCCSC1=C(C#N)C(c2ccccc2Cl)CC(=O)N1 (stereo not given) | i
COc1ccc(NC(=S)NC2CCCc3ccccc32)cc1OC (stereo not given) | 14%
COc1ccc(CCNC(=O)CSc2ncnc3scc(-c4ccc(C)cc4)c23)cc1OC | i
Cc1ccc2nc(NC(=O)c3ccc(Br)o3)sc2c1 | 1%
Cc1c(C)c2ccc(OC(C)c3ccccc3)cc2oc1=O (stereo not given) | i
Cc1cc(C=O)c(C)n1-c1ccc(S(N)(=O)=O)cc1 | 46%
N#Cc1ccc(NS(=O)(=O)c2cc(Cl)ccc2Cl)cc1 | i
COc1ccc(C)cc1NS(=O)(=O)c1cccc(C(=O)O)c1 | i
CCCCC(=O)Nc1cccc(NC(=S)NC(=O)Cc2ccccc2)c1 | 2%
O=[N+]([O-])c1ccc(-c2nc(-c3ccncc3)no2)cc1 | i
Cc1cc(S(=O)(=O)N2CCN(Cc3ccccc3)CC2)c(C)cc1Br | 2%
CCn1ncc(NC(=S)Nc2ccccc2C(F)(F)F)c1C(N)=O | i
CCOc1cc(C(=O)O/N=C(\N)c2ccccn2)cc(OCC)c1OCC | 27%
Cc1cc(=O)oc2cc(OCc3ccc(S(=O)(=O)N4CCOCC4)cc3)ccc12 | i
N#CC1=C(SCC(=O)NCc2ccccc2)NC(=O)CC1c1cccc([N+](=O)[O-])c1 (stereo not given) | i
Cc1ccc(C(=O)NNC(=O)CNC(=O)C2CCCCC2)cc1I | i
O=C(Nc1cc2nn(-c3ccccc3)nc2cc1Cl)c1ccc([N+](=O)[O-])o1 | u
CN(c1nc(-c2ccccc2)cs1)C1CCS(=O)(=O)C1 (stereo not given) | i

Another view of some results above:
O=[N+]([O-])c1ccc(-c2nc(-c3ccncc3)no2)cc1
  Mtb H37Rv: i
Cc1cc(S(=O)(=O)N2CCN(Cc3ccccc3)CC2)c(C)cc1Br
  Mtb H37Rv: 2%
CCn1ncc(NC(=S)Nc2ccccc2C(F)(F)F)c1C(N)=O
  Mtb H37Rv: i
CCOc1cc(C(=O)O/N=C(\N)c2ccccn2)cc(OCC)c1OCC
  Mtb H37Rv: 27%

Next part:
SMILES | Mtb H37Rv
CCc1ccc(S(=O)(=O)N(Cc2ccccc2)Cc2ccccc2)cc1 | i
CCc1ccccc1NC(=O)CN(C)S(=O)(=O)c1ccc(OC)cc1 | i
Cc1cc(SCC(=O)N2CCOCC2)nc2c(C)cccc12 | i
Cc1sc2ncnc(SCC(=O)Nc3ccc(F)cc3)c2c1C | i
CCC(=O)NC(=S)Nc1cccc(Cl)c1N1CCCCC1 | 13%
O=C(CSc1nc2ccccc2c(=O)n1-c1ccc(Cl)cc1)Nc1ccc(Cl)c(Cl)c1 | i
FC(F)(F)C(=C(NC(=S)N1CCCCCC1)C(F)(F)C(F)(F)F)C(F)(F)F | 2%
Cc1ccccc1C(=O)Nc1cccc(NC(=O)CCc2ccccc2)c1 | i
COc1ccc(NC(=S)NNC(=O)COc2ccc(-c3ccccc3)cc2)c(OC)c1 | 1%
COC(=O)c1ccc(C)c(NC(=O)Nc2ccccc2C(F)(F)F)c1 | i
Cc1cc(C)nc(NS(=O)(=O)c2ccc(NC(=O)Cn3cnc4ccccc4c3=O)cc2)n1 | i
Cc1cc(C(F)F)n2nc(C(=O)Nc3cc(Sc4ccccn4)cc([N+](=O)[O-])c3)nc2n1 | 0%
COc1cc(C(=O)Oc2ccccc2C(C)=O)cc(OC)c1OC | 1%
CC(=O)Oc1ccc2c(=O)c(-c3ccc4c(c3)OCCCO4)c(C)oc2c1 | i
CCOc1ccc(NC(=O)CSc2nnc(C(C)NC(=O)c3ccccc3Cl)n2CC)cc1 (stereo not given) | 2%
FC(F)(F)c1ccccc1NC(=S)Nc1ccc(OCc2ccccc2)cc1 | i
O=C(Cc1ccc(-c2ccccc2)cc1)NNC(=O)Nc1ccc2c(c1)OCO2 | i
CCOc1ccc(-n2c(SCC(=O)OC(C)C)nc3ccccc3c2=O)cc1 | 8%
Cc1ccc(C)c(OCCCC(=O)Nc2cccc(Cl)c2C)c1 | 1%
Cc1nnc(NC(C)c2ccccc2)[nH]c1=O (stereo not given) | i
COc1ccc(C2C(C(C)=O)=C(C)Nc3nnnn32)cc1 (stereo not given) | i
COc1ccc(C(=O)Nc2c(Cl)cc(Cl)cc2C(=O)N2CCOCC2)cc1 | i
Cc1ccc(NC(=O)c2oc3c(c2C)C(=O)CC(C)(C)C3)cc1 | i
O=C(Nc1ccc(Br)cn1)C(Cc1ccccc1)N1C(=O)c2ccccc2C1=O (stereo not given) | i
COc1cccc(C(=O)Nc2ccc(N(C)C)cc2)c1OC | i
(more compounds)
SMILES | Mtb H37Rv
COc1ccc(S(=O)(=O)NCc2ccccn2)cc1Cl | 2%
CC1CCN(CCOc2ccc(OCc3ccccc3)cc2)CC1 | 40%
O=C(Nc1cccc2ccccc12)C1CCCC1 | i
CCOc1ccc(C2NC(=S)NC(C)=C2C(=O)Nc2ccccc2Cl)cc1OCC (stereo not given) | i
CCCCc1ccc(NC(=O)c2ccccc2N(C)S(C)(=O)=O)cc1 | i
Cc1cc(OCCn2c(C)c(C#N)c3ccccc32)ccc1Cl | i
Cc1ccc(Nc2nc3c(c(=O)n(C)c(=O)n3C)n2C)cc1C | 5%
Cc1cc(NC(=O)c2ccc([N+](=O)[O-])o2)c(C)cc1I | 0.46µg/mL*
O=C(COc1ccc(Cl)cc1Cl)NC(=S)Nc1cccc(Br)c1 | i
COc1cc(/C=C2/C(=O)NC(=O)N(c3ccccc3F)C2=O)ccc1OCc1ccccc1 | i
COc1ccc(S(=O)(=O)N2Cc3ccccc3CC2C(=O)Nc2ccc(C)cc2C)cc1OC (stereo not given) | i
Cc1cc(C)n(C(=O)COc2ccc(Br)cc2Cl)n1 | i
COc1cccc(C(=S)N2CCCC2)c1O | i
CC(C)(C)NCCCCOc1ccccc1Br | i
COc1ccc(-n2c(SCC(=O)N3CCCC3)nnc2-c2ccc(Cl)cc2)cc1 | i
COc1ccc([N+](=O)[O-])cc1NC(=O)C(C)N(c1ccccc1)S(C)(=O)=O (stereo not given) | i
C=CCn1c(SCC(=O)O)nnc1-c1ccc2c(c1)OCO2 | i
Cc1nn(C)cc1CN1CCN(C(=S)NCCc2ccccc2)CC1 | i
Cc1ccc(CN2CCN(C(=O)c3ccccc3C)CC2)cc1 | i
Cc1cc(S(=O)(=O)NCCC2=CCCCC2)c(Cl)cc1Cl | 8%
CCOC(=O)C1=C(C)NC(=O)c2c(ccc(OC)c2OC)C1O (stereo not given) | 7%
CCSc1nnc(NC(=O)C2(C)Cc3ccccc3C(=O)O2)s1 (stereo not given) | i
CCn1cc(Br)c(C(=O)Nc2ccc(OC(F)(F)F)cc2)n1 | i
CCn1c(SCC(=O)Nc2ccccc2OC)nnc1-c1ccccc1C | i
CC(Oc1ccc(C=O)cc1)c1ccccc1 (stereo not given) | i
Continued.
SMILES | Mtb H37Rv
CS(=O)(=O)N1CCN(Cc2ccncc2)CC1 | i
S=c1[nH]nc(-c2ccncc2)n1-c1cccc2ccccc12 | i
N/C(=N\OC(=O)Cc1cccs1)c1ccccc1Cl | 1%
COc1ccccc1-c1cc2ccc(OC(C)=O)cc2oc1=O | i
CCOc1ccc(S(=O)(=O)Nc2ccc(C(C)C)cc2)cc1 | 49%
Cc1onc(-c2ccccc2)c1C(=O)O | 5%
Fc1cccc(Cl)c1Cn1cc(C(=S)N2CCCC2)c2ccccc21 | i
CC1(C)C(=O)OC(/C=C\c2cccc([N+](=O)[O-])c2)C(C)(C)C1=O (stereo not given) | i
Cc1ccc2nc(SCC(=O)NC3CCCCC3)[nH]c2c1 | 5%
COC(=O)c1ccc(OCCOc2ccc(C(=O)OC)cc2)cc1 | i
COc1ccc(S(=O)(=O)N(CC(=O)Nc2cc([N+](=O)[O-])ccc2C)c2ccc(Cl)cc2)cc1 | 8%
COc1ccccc1NC(=O)c1ccc(COc2c(F)c(F)cc(F)c2F)cc1 | i
CC(C)c1cccc(OCCN2CCCC2)c1 | 3%
COc1cccc(C2CC(c3cccc(C)c3)n3nc(N)nc3N2)c1 (stereo not given) | i
CCc1ccc(Oc2c(C(F)(F)F)oc3c(CN4CCOCC4)c(O)ccc3c2=O)cc1 | i
CN(CC(=O)N1CCc2ccccc21)S(=O)(=O)c1ccc(Cl)cc1 | i
COc1ccc(Cl)cc1NC(=S)N1CCN(c2cccc(C(F)(F)F)c2)CC1 | i
CC(=O)OCCCN1C(=O)c2ccc(Br)cc2C1=O | i
Cc1cc(C)cc(OCC(=O)Nc2ccc(Sc3ccc([N+](=O)[O-])cc3)cc2)c1 | i
COc1cc(C(=O)N2CCN(C3=NS(=O)(=O)c4ccccc43)CC2)cc(OC)c1OC | i
COc1ccc(-c2nc3ccccc3o2)cc1NC(=S)NC(=O)CC12CC3CC(CC(C3)C1)C2 | i
N#Cc1ccc(-c2ccccc2[N+](=O)[O-])o1 | i
c1nc(Nc2ccc(N3CCCCC3)cc2)c2c3c(sc2n1)CCCC3 | u
CCc1cccc(OCC(=O)Nc2ccc(S(=O)(=O)Nc3ccccn3)cc2)c1 | i
O=C(O)c1cccnc1SC1CC(=O)N(CCc2ccccc2)C1=O (stereo not given) | i

By substructure: those above with a furan ring, fused or not.
SMILES | Mtb H37Rv
O=C(Nc1ccccc1F)c1ccc(COc2ccccc2Cl)o1 | i
Cc1ccc2nc(NC(=O)c3ccc(Br)o3)sc2c1 | 1%
O=C(Nc1cc2nn(-c3ccccc3)nc2cc1Cl)c1ccc([N+](=O)[O-])o1 | u
Cc1ccc(NC(=O)c2oc3c(c2C)C(=O)CC(C)(C)C3)cc1 | i
Cc1cc(NC(=O)c2ccc([N+](=O)[O-])o2)c(C)cc1I | 0.46µg/mL*
N#Cc1ccc(-c2ccccc2[N+](=O)[O-])o1 | i

The results go on:
SMILES | Mtb H37Rv
O=C(CN1CCN(c2cccc(Cl)c2)CC1)c1ccc(Cl)cc1 | 2%
CCn1c(CCCc2ccc(OC)c(C)c2)n[nH]c1=S | i
Cc1ccc(CNC(=S)Nc2cc(C)ccn2)cc1 | 1%
CCCn1nnc(NC(=O)c2ccccc2Br)n1 | i
O=C(O)c1ccccc1NS(=O)(=O)c1ccccc1C(F)(F)F | i
COc1ccc(CN(CCC(c2ccco2)c2ccccc2OC)C(C)=O)cc1OC (stereo not given) | 5%
C/C=C/c1ccc(OCC(=O)OCC)c(OC)c1 | u
CC(C)(C)C(=O)NC(=S)Nc1ccc(O)c(-c2nc3ccccc3o2)c1 | i
O=C(NNC(=S)Nc1ccc(F)cc1F)c1ccc(Br)s1 | i
CCC(C)Oc1ccc(C(=O)NC(=S)Nc2ccc(NC(=O)c3ccco3)cc2)cc1 (stereo not given) | 0.36µg/mL*
CCOCCCNC(=O)C(=O)NCc1ccc(C)cc1 | i
Cc1ccccc1C(=O)NC1C2CC3CC(C2)CC1C3 (stereo not given) | 2%
COc1cc(C(C)=O)ccc1OCC(O)CN1CCN(S(=O)(=O)c2ccccc2)CC1 (stereo not given) | 2%
COCCCN1C(=O)C(O)=C(C(=O)c2ccco2)C1c1ccccc1F (stereo not given) | i
Cc1cccc(C)c1OCC(=O)Nc1ccc(S(=O)(=O)N2CCC(C)CC2)cc1 | 18%
C=CCc1ccc(OCC(O)CN2CCN(c3cc(Cl)ccc3C)CC2)c(OC)c1 (stereo not given) | u
CCCCOc1ccc(S(=O)(=O)N2CC(C)OC(C)C2)cc1 (stereo not given) | i
CCC(=O)N1N=C(c2ccc(C)o2)CC1c1cccc(F)c1 (stereo not given) | i
CC1CCN(C(=S)c2ccc(N(C)C)cc2)CC1 | 1%
Cc1cc(C(=O)Nc2ccccn2)no1 | i
Cn1c(O)c(C=NCCN2CCOCC2)c(=O)n(C)c1=O | i
COCCNC(=O)C(NC(=O)c1ccc(F)cc1)C12CC3CC(CC(C3)C1)C2 (stereo not given) | i
COc1cc(CNC(C)c2ccccc2)cc(Cl)c1OCC(N)=O (stereo not given) | i
CCOC(=O)c1nc(Nc2ccc(N3CCOCC3)cc2)c2ccccc2n1 | i
O=C(Nc1ccc(O)cc1)C1Cc2ccccc2CN1S(=O)(=O)c1cccs1 (stereo not given) | i

Reformatted: entries from further up.
SMILES: CC1CCN(C(=S)c2ccc(N(C)C)cc2)CC1
  Mtb H37Rv: 1%

SMILES: Cc1cc(C(=O)Nc2ccccn2)no1
  Mtb H37Rv: i

SMILES: Cn1c(O)c(C=NCCN2CCOCC2)c(=O)n(C)c1=O
  Mtb H37Rv: i

SMILES: COCCNC(=O)C(NC(=O)c1ccc(F)cc1)C12CC3CC(CC(C3)C1)C2 (stereo not given)
  Mtb H37Rv: i

(cont.)
SMILES | Mtb H37Rv
COc1ccc(N(CC(=O)NC2CCCC2)S(C)(=O)=O)cc1OC | i
Fc1ccc2[nH]c3nc4ccccc4nc3c2c1 | i
COc1c(C(=O)NC(C)c2ccccc2)ccc2ccccc12 (stereo not given) | i
CCn1c(CC(=O)Nc2cccc(OC)c2)nnc1SCC(=O)c1ccc(Br)cc1 | i
C=CCn1c(Cc2ccc(OC)cc2)nnc1SCC(=O)Nc1nc2ccccc2s1 | i
COc1cc(CO)cc(Cl)c1OCc1ccc([N+](=O)[O-])cc1 | i
COc1ccc(C(=O)NCc2ccccc2Cl)cc1[N+](=O)[O-] | i
